Compound activity (PubChem)
E coli growth: E. coli growth inhibition, primary screen, OD600. Escherichia coli growth, 23 h; hits give low values. OD600 absorbance (concentration not given with the values). hit rate 0.21% among 330,000. AID 1053175, 2014;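 active = OD600 absorbance below the run mean of sample wells minus 3.6 SD, in any replicate, cut at about 0.56 in these data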;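 note: stock transfer was 300 nL into about 60 µL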
UCH37 inh: inhibitors of human UCH37 deubiquitinase, primary screen, biochemical, Ub-AMC cleavage, fluorescence | Ubiquitin carboxyl-terminal hydrolase isozyme L5 (Homo sapiens), Q9Y5K5 | inhibition, % (no concentration beside the values) | purified proteasome/UCH37 | hit rate 0.33% among 330,000;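 active = mean of two replicates above 20%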;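 note: 0% = compound-free wells with enzyme and 100% = wells lacking proteasome; stock transfer was 100 nL into about 20 µL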
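assay system = human UCH37 enzyme supplied as purified proteasome complex | amount = proteasome at 0.15 nM in the dispensed enzyme solution | schedule = 30 min compound-proteasome preincubation then 25 min substrate reaction, room temperature | measured by = fluorescence, ex 355 nm, em 460 nm | benchmarks = no-proteasome wells (full inhibition) and compound-free wells (no inhibition)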
Beta2AR agonist: beta2AR agonists driving receptor internalization, primary screen, cell-based, FAP fluorogen, flow cytometry; Beta-2 adrenergic receptor (Homo sapiens), P07550; Am2.2-beta2AR cells; reference of the scale not given here; response, % (concentration not given with the values); hit rate 0.43% among 340,000; AID 504454, 2011;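 active = response above a set limit, near 3 SD of response in nonfluorescent compounds, cut at about 42% in these data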;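 note: stock transfer was 100 nL into about 11 µL; a reference agonist was the positive control; negative values mostly stem from fluorescent compounds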
LANA-H2B inh: blockers of LANA interaction with H2A/H2B – biochemical, FP readout, HTS, primary screen; AID 2629, 2010; inhibition, % (concentration not given with the values); hit rate 0.6% among 320,000; Protein LANA1 (Human herpesvirus 8 type P (isolate GK18)), Q9QR71; cell-free LANA-H2A/H2B peptide, fluorescence polarization; in the data active = inhibition mostly above about 10%, no sharp cut-off; inactive = mostly below about 6.7%;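 note: stock transfer was 7.5 nL into about 10 µL; 0% = median of vehicle wells and 100% = median of positive control wells; one replicate is shown; the record names a cut of 25% in any replicate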
Target sequence (Q9QR71 whole entry, looked up): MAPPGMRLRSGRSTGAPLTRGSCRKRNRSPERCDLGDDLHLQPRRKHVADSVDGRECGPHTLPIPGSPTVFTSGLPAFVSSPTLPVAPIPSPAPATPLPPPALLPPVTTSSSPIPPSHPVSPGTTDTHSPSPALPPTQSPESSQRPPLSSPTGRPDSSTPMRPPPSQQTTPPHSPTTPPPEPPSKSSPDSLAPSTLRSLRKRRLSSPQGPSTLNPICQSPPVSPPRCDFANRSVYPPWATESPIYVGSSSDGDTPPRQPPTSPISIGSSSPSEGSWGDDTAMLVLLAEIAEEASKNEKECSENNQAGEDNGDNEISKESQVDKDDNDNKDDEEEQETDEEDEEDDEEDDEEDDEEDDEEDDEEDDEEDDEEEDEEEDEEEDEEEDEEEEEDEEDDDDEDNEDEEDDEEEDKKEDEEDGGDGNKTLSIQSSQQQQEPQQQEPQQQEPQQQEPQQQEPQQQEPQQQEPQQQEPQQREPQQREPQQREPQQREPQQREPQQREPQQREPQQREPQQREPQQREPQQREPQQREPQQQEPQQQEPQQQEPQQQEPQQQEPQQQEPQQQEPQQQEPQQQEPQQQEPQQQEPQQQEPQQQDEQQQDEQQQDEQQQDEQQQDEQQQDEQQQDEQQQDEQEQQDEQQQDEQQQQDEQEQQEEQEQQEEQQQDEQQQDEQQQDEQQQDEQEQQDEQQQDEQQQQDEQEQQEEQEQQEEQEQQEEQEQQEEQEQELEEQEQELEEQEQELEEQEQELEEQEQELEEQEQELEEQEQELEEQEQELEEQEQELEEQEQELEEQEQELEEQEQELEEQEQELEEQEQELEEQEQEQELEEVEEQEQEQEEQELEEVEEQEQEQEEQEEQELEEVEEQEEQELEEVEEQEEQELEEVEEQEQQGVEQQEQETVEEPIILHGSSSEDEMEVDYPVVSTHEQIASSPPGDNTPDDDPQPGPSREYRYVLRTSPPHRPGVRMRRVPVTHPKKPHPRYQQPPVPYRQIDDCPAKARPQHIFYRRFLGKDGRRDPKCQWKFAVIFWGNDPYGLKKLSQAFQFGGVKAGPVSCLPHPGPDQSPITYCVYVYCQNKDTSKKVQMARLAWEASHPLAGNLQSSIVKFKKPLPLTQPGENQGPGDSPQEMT
Vif TR-FRET: inhibitors of Vif binding to APOBEC3G peptide, primary screen, biochemical, TR-FRET, GST-Vif 1-94, biotin-A3G peptide, dose response retest (AID 1117319); Virion infectivity factor (Human immunodeficiency virus type 1 group M subtype B (isolate …; TR-FRET GST-Vif / biotin-A3G peptide binding; higher % means a stronger effect; test concentration not given here; strong numbers were not always called active; inhibition, %, or IC50 in µM where a hit was titrated; hit rate 0.57% among 260,000;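 active = above the screen mean plus three standard deviations and confirmed in dose response; inconclusive = results disagree or hit not tested in dose response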;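 note: Vif residues 1-94 fused to GST binding biotinylated APOBEC3G peptide 110-148; 0% = full assay without inhibitor and 100% = GST in place of GST-Vif; retest series ran down from 100 µM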
A1 inh: caspase 3/7 activation in MEF A1-2A-BIM cells, primary screen, A1 inhibitor project, cell-based, luminescence, HTS; Caspase-Glo 3/7 luminescence, 3 h; percent of clofoctol response, vehicle zero; caspase activation, % (concentration not given with the values); hit rate 0.066% among 330,000; AID 2462, 2010;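 active = over half of replicate activation scores above 10%, or exactly half above 10 with the replicate mean above 10; inconclusive = replicate mean below 10 yet half the replicates above 10; inactive = over half of replicates below 10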;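 note: wells of about 30 µL received 50 nL stock; many hits fall short of the cut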
HNF4A DNA FP: change in binding of human HNF4A to DNA, primary screen, biochemical, fluorescence polarization, FITC-DNA | Hepatocyte nuclear factor 4-alpha (Homo sapiens), P41235 | 1 h | activity change, % at 10 µM | hit rate 0.3% among 360,000; in the data active = activity change above about 30%, passing the limit was not always enough;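 note: controls were the assay level and a saturating level of protein; the project sought stronger binding though the title names inhibitors; some compounds called inactive have numbers as strong as hits; positive values seem to mean higher polarization but the record does not say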
Active calls of the source: *; i = inactive; ? = inconclusive; . = not tested or not shown.

SMILES	E coli growth	UCH37 inh	Beta2AR agonist	LANA-H2B inh	Vif TR-FRET	A1 inh	HNF4A DNA FP
COc1cccc(C(=O)Nc2nnc(S(=O)(=O)Nc3cccc(C)c3)s2)c1	0.804	6.3	-5.3	-0.1	.	1.3	1.4
COc1ccc2c(c1)c(=O)c(Br)c(C)n2Cc1ccccc1	0.696	-3.3	-2.8	-1.1	2.5%	1.1	0.4
Cc1cc(C)n(CCCN2C(=O)c3cccc4cccc(c34)C2=O)n1	0.693	-0.6	3.6	-1.3	.	0.3	-5.1
O=C(NC1CCCCC1)C12CC3CC(CC(Cl)(C3)C1)C2	0.677	0.7	-1.6	-0.6	9.4%	0.0	0.6
COc1ccc(C2Nc3ccccc3C(=O)N2c2ccccc2)cc1Cn1cc([N+](=O)[O-])cn1 (stereo not drawn)	0.686	1.7	13.3	4.2	3.0%	0.8	-0.7
O=C(COC(=O)/C=C/c1cccc(C(F)(F)F)c1)Nc1cccc2ccccc12	0.717	-0.3	15.1	1.4	-3.9%	-0.7	-0.2
COc1ccc(N(CC(=O)NCCSc2ccccc2)S(=O)(=O)c2ccccc2)cc1OC	0.685	-1.3	11.2	0.6	-0.2%	2.1	1.8
COc1ccc(CNC(=O)c2ccc(S(=O)(=O)NCc3ccco3)cc2)cc1	0.674	-1.0	6.5	.	-8.2%	.	2.4
COc1ccc(Cc2nnc3n2N=C(c2cc4ccccc4o2)CS3)cc1OC	0.708	3.8	2.8	-0.3	.	0.2	6.2
CCOc1ccc(OCC)c(Nc2cc(C)nc3ncnn23)c1	0.724	1.7	-1.5	1.2	-0.8%	?	-1.1
O=C(NC1CCCC1)c1ccc2nc[nH]c2c1	0.726	1.5	0.4	8.5	15.4%	0.2	2.2
CCc1cc2c(CN3CCN(Cc4ccccc4)CC3)cc(=O)oc2cc1O	0.669	i	3.6	-1.1	-0.9%	0.9	-2.9
CCOC(=O)N1CCN(CCC(=O)Nc2cc(OC)ccc2OC)CC1	0.701	3.5	0.4	-0.5	1.0%	1.7	2.4
Cc1cc(C)c(C)c(S(=O)(=O)N2CCN(CC(=O)c3c(N)n(Cc4ccccc4)c(=O)n(C)c3=O)CC2)c1C	0.637	2.5	-4.7	2.5	0.6%	-0.5	6.6
C=CCNS(=O)(=O)c1ccc(OCC(=O)OC)cc1	0.705	3.5	3.3	-6.1	-0.5%	0.3	1.4
C/C(=N\NC(=O)c1ccccc1O)c1cccs1	.	.	-0.2	-3.0	11.3%	-8.9	-1.9
COc1ccc(CCNC2=C(Cl)C(=O)N(CCc3ccc(OC)c(OC)c3)C2=O)cc1OC	0.749	-10.0	22.1	-1.1	-0.5%	1.1	0.5
COc1ccc(-c2ccc(OC)c([C@H]3[C@@H]4C=CCC[C@@]4(C)C(=O)N3Cc3ccccc3)c2)cc1OC	.	-3.5	5.9	-1.8	16.7%	0.5	3.3
COc1ccc(S(N)(=O)=O)cc1C(=O)OCC(=O)Nc1sccc1C#N	0.663	0.8	9.6	-2.0	-6.3%	-0.1	24.2
Cc1cc(-c2ccc([N+](=O)[O-])cc2)nc2ccccc12	0.718	3.0	-9.6	-1.6	-21.1%	0.2	0.7
COC(=O)c1c(CSc2cccc(C)c2)noc1C(=O)NCc1ccco1	0.706	0.8	2.6	2.8	4.3%	0.3	-4.0
COCc1cc(C)n(CC(=O)Nc2cccc(C)c2)c(=O)c1C#N	0.72	-21.1	11.1	0.1	14.7%	1.6	0.0
Cc1ccn(CC(=O)N2CCCC(N3CCN(Cc4ccc5c(c4)OCO5)CC3)C2)n1 (stereo not drawn)	0.708	1.9	0.7	2.1	.	2.4	-1.9
O=C(COC(=O)c1cccnc1Cl)NCc1ccc(F)cc1	0.665	0.8	4.9	1.7	.	0.1	-1.3
Cc1cccc(-n2nnc3c(=O)n(CC(=O)Nc4cc(C)on4)cnc32)c1	0.727	1.5	-2.6	-2.5	-0.3%	-0.3	2.7
COCCOc1cc(-n2cccc2)c(Cl)cc1Cl	0.688	4.1	-11.6	-1.2	-12.5%	-0.5	1.5
COc1ccc(C(=O)NCCSc2ccccc2C)cc1	0.674	0.8	2.3	-6.8	.	-1.3	0.6
Cc1nc2ccc(NC(=S)NCCCO)cc2nc1C	0.691	-64.5	3.3	-4.4	-4.9%	1.0	0.1
NC1=NC(=Nc2ccc(S(N)(=O)=O)cc2)c2ccccc21	0.687	5.5	-8.0	0.2	4.6%	0.6	3.5
CC(=O)Nc1ccc(NC(=O)CCN2C(=O)c3ccccc3C2=O)cc1	0.669	2.8	-4.0	-5.4	.	-0.5	2.9
COc1ccc(NC(=O)c2cccs2)cc1C(=O)N1CCN(c2ccccc2)CC1	0.722	-2.4	-17.2	-2.1	1.8%	-0.7	1.3
Brc1ccc(CSc2nnc3ccccn23)cc1	0.654	-0.8	-2.3	0.1	6.5%	-0.1	-2.2
CCOC(=O)C(C)Sc1ncc(-c2ccc(Cl)cc2)cn1 (stereo not drawn)	0.643	-1.7	-1.8	-4.7	2.9%	-0.6	72.9*
Cc1cccc(C)c1NC(=O)CSc1cc(C(=O)c2nccn2C)c2ccccc2n1	0.667	1.0	-10.3	-0.2	-33.6%	0.2	3.2
COc1ccc(C2C(=O)c3ccccc3C2=Nc2ccc(Br)cc2)cc1 (stereo not drawn)	0.709	3.3	-2.6	8.5	.	-0.9	-9.8
Cn1c(SCC#N)nnc1-c1cnccn1	0.727	3.8	-6.9	-0.5	-3.6%	-0.5	-1.9
O=c1c(-c2nnc(SCc3ccc(Cl)c(Cl)c3)o2)cccn1Cc1ccccc1	0.705	i	-1.3	-1.2	-9.5%	-0.2	0.3
FC(F)(F)c1cc(-c2ccco2)nc(NCc2cccs2)n1	0.677	-6.9	-3.9	0.6	?	-0.2	3.3
O=C(O)CCCC(=O)N1CCC(C(O)(c2ccccc2)c2ccccc2)CC1	0.688	1.4	-0.3	-0.8	1.7%	0.7	5.0
CCOc1ccccc1NC(=O)Cn1nnc(C(=O)NCCc2ccc(OCC)c(OCC)c2)c1N	0.712	0.7	-2.4	0.6	.	0.4	0.8
COc1ccc(N(C)S(=O)(=O)c2cccc(C(=O)NCC3CCCO3)c2)cc1 (stereo not drawn)	0.694	-0.3	-1.9	1.0	-0.7%	-0.2	2.4
COc1ccc(NS(=O)(=O)c2ccc(C(=O)N3CCC(C)CC3)cc2)cc1	0.68	1.5	4.7	0.3	1.8%	0.6	1.7
CNC(=O)COC(=O)c1cccc(S(=O)(=O)N2CCN(c3ccc(F)cc3)CC2)c1	0.699	1.1	-5.5	2.1	-2.6%	1.1	1.4
Cc1ccc(S(=O)(=O)N2CC(C)N(C(=O)N3CCOCC3)C2)cc1 (stereo not drawn)	0.681	1.0	-6.0	5.2	.	0.0	0.7
Cc1nc(C(=O)O)nn1-c1cc(Cl)ccc1Cl	0.697	1.1	11.0	0.9	2.1%	-0.1	0.2
O=C(NCCCO)c1ccc(CSc2nc3ccccc3c(=O)[nH]2)cc1	0.702	3.6	-5.9	-3.2	?	0.7	-0.5
Cc1cccc(CC2S/C(=N/N=C/c3ccco3)N(c3ccccc3)C2=O)c1 (stereo not drawn)	.	.	-6.5	-53.8	29.2%	1.4	-1.3
CCCCC(Sc1nc(C)c(Cc2ccccc2)c(=O)[nH]1)C(=O)O (stereo not drawn)	0.717	1.4	-1.6	0.9	.	-0.5	2.1
COC(=O)C1=C(C)Nc2nnnn2C1c1cccnc1 (stereo not drawn)	0.699	0.5	5.4	-2.8	-3.0%	0.7	1.4
NC(=O)C1CC2(C1)CC(C(N)=O)C2 (stereo not drawn)	0.661	-0.2	.	.	.	.	-3.8
COc1ccc(-c2nc3ccccn3c2NCc2ccc3c(c2)OCO3)cc1	0.673	-131.2	-4.0	-2.8	14.3%	-4.4	-0.6
CCOCCCN(C(=O)CCC(=O)Nc1cc(C)on1)C(C(=O)NC(C)(C)CC)c1cccc(OC)c1OC (stereo not drawn)	0.654	3.3	5.0	-0.8	.	0.2	-0.6
S=C(NCCc1ccccc1)Nc1ccccc1Cl	0.703	5.1	-3.3	-2.1	.	1.2	0.0
Cc1noc(C)c1COC(=O)Cn1c(C)nc2ccccc21	0.724	-0.3	-7.7	0.2	-6.4%	-0.6	-3.1
CC(C)CNC(=O)c1cnn2c(C(F)(F)F)cc(C(F)(F)F)nc12	0.696	2.3	-6.5	-8.0	-4.1%	0.3	0.4
CC(=O)c1c(C)[nH]c(C(=O)Nc2ccc(F)c(F)c2F)c1C	0.702	-0.9	-8.2	2.1	.	-2.2	1.3
CCOC(=O)C1CCN(C(c2ccccn2)c2c(C)[nH]c3ccccc23)CC1 (stereo not drawn)	0.706	3.4	12.0	3.5	9.2%	0.3	-0.4
COc1ccc(NS(=O)(=O)c2cc(NC(=O)Cc3cccs3)ccc2C)cc1	0.716	6.2	-0.6	5.4	21.0%	0.9	-0.1
COc1ccc(CCNC(=O)c2coc3ccccc3c2=O)cc1OC	0.67	9.0	1.8	12.4	-9.7%	-0.3	10.4
COc1cc(CC(=O)NC2CCCc3ccccc32)cc(OC)c1OC (stereo not drawn)	0.641	1.5	-3.2	2.5	-0.6%	-0.1	1.4

Carrying on.
SMILES	E coli growth	UCH37 inh	Beta2AR agonist	LANA-H2B inh	Vif TR-FRET	A1 inh	HNF4A DNA FP
O=C(O)COc1ccccc1/C=N/NC(=O)CN1CCN(Cc2ccccc2Cl)CC1	.	.	6.5	-3.1	1.1%	0.4	3.8
CN(C)c1ccc(CNC(=O)CCS(=O)(=O)c2ccc3c(c2)n(C)c(=O)c(=O)n3C)cc1	.	5.2	-11.2	1.5	.	0.6	-2.2
CCC(C)NC(=O)c1ccccc1NC(=O)CN(c1ccc(OC)cc1)S(C)(=O)=O (stereo not drawn)	0.701	-0.1	1.8	-3.2	0.8%	0.4	0.3
CC1(C)CC(CC(=O)O)CC(C)(C)N1	0.713	1.1	-5.7	0.1	.	1.1	-3.0
CC(CCc1ccccn1)C(=O)C(C)CCc1ccccn1 (stereo not drawn)	0.689	0.6	-14.3	.	9.9%	.	-0.1
CC1=CC(C)[C@@H]2COC(c3ccc(O)cc3)[C@H]1C2C (stereo partly drawn)	.	.	4.5	-3.3	.	-0.9	1.2
CCc1nnc(NS(=O)(=O)c2ccc(NC(=S)NC(=O)c3ccc(OC)c(OC)c3)cc2)s1	0.606	8.4	6.5	-1.1	-11.2%	-0.6	-0.8
CCOC(=O)C(O)C1CCc2c([nH]c3ccc(C)cc23)C1=O (stereo not drawn)	0.629	-55.7	1.9	0.6	-6.3%	0.6	1.4
COc1ccc(O)c(C2=Nc3ccccc3N=C(c3ccccc3)C2)c1	0.668	2.2	11.4	2.8	10.9%	0.5	5.3
COc1ccc(CN2CCCC(N3CCc4ccccc4C3)C2)c(O)c1 (stereo not drawn)	0.71	4.0	4.1	-1.3	.	0.0	2.6
Cc1c(Br)cccc1NC(=O)c1sccc1-n1cccc1	0.684	2.8	-6.1	.	-1.4%	.	-4.6
Cc1ccc(CNC(=O)Nc2ccc(F)cc2)n1C	0.68	-4.6	-1.3	-2.8	1.7%	0.2	1.2
Cc1ccc(NC(=O)CC(C(=O)O)c2ccccc2)cc1 (stereo not drawn)	0.675	3.7	-1.9	0.8	1.4%	0.4	2.3
